Bioassay records as filed in PubChem.
Bfl-1 A1 inh – inhibitors of the anti-apoptotic protein A1, read as caspase activation. MEF A1-2A-BIM cells, Caspase-Glo 3/7 luminescence, 3 h; percent of clofoctol response, vehicle zero. caspase activation, % (concentration not given with the values). 330,000 compounds, 0.066% hits;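 active means over half of replicate activation scores above 10%, or exactly half above 10 with the replicate mean above 10; inconclusive means replicate mean below 10 yet half the replicates above 10; inactive means over half of replicates below 10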;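 further: wells of about 30 µL received 50 nL stock; many hits fall short of the cut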
E coli growth – E. coli growth inhibition | OD600 absorbance (test concentration not listed) | 330,000 compounds, 0.21% hits | Escherichia coli growth, OD600, 23 h; stronger effect = lower value;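 active means OD600 absorbance below the run mean of sample wells minus 3.6 SD, in any replicate, cut at about 0.56 in these data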;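 further: stock transfer was 300 nL into about 60 µL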
AF4-AF9 inh – MLL-AF4/AF9 protein interaction inhibition. P42568. 350,000 compounds, 0.47% hits. AlphaScreen, biotin-AF4 peptide binding to FLAG-AF9. inhibition, % at 10 µM;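 active means every replicate reaching a set inhibition limit, whatever the replicate mean, cut at about 25% in these data; inconclusive means mean inhibition reaches that limit but some replicates miss it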;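 further: 0% = plate neutral control median and 100% = total signal loss; the record names both 10 and 1 µM as test concentration; the first replicate is given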
Target sequence (P42568 whole entry, looked up): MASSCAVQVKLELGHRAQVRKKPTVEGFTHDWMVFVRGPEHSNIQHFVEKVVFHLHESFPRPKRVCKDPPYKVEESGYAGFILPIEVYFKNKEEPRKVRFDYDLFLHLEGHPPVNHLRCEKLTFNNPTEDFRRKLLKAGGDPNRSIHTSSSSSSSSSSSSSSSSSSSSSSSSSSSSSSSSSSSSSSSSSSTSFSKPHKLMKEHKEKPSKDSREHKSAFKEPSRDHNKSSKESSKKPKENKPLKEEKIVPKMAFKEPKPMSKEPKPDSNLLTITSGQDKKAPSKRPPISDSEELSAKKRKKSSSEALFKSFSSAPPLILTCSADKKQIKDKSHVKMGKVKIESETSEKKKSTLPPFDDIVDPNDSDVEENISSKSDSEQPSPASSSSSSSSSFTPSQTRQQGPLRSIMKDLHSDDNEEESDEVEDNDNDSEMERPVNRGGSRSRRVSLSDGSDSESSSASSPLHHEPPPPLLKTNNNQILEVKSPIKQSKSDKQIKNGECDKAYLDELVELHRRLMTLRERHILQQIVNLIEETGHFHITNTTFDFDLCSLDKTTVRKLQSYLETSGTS
UCH37 inh – blocks the human deubiquitinase UCH37 | purified proteasome/UCH37, Ub-AMC cleavage fluorescence | 330,000 compounds, 0.33% hits | AID 588478 | inhibition, % (concentration not given with the values) | Q9Y5K5;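 active means mean of two replicates above 20%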;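 further: 0% = compound-free wells with enzyme and 100% = wells lacking proteasome; stock transfer was 100 nL into about 20 µL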
Target sequence (Q9Y5K5 whole entry, looked up): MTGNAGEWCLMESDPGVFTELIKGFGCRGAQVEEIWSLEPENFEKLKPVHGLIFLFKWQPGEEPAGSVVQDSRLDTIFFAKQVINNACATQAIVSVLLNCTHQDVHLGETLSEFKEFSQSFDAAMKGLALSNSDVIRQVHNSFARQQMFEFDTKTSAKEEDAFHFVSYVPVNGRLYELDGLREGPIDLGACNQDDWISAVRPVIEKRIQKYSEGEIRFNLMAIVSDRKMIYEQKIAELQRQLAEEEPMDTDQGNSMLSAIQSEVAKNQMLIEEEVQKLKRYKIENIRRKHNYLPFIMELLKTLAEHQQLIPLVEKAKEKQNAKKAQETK
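Material: Human UCH37 enzyme supplied as purified proteasome complex | Schedule: 30 min compound-proteasome preincubation then 25 min substrate reaction, room temperature | Detection: AMC fluorescence from Ub-AMC cleavage, excitation 355 nm, emission 460 nm | Benchmarks: Wells without proteasome as full block, compound-free enzyme plus substrate as uninhibited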
Beta cell apopt – beta cell apoptosis inhibition | INS-1E cytokine-induced death, ATP luminescence, 48 h; percent of positive-control rescue, neutral wells zero | protection from apoptosis, % (test concentration not listed) | 300,000 compounds, 0.8% hits | AID 435005;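 active means all replicates at 75% or more, or half of them and the mean; inconclusive means half reach 75% but not the mean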;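 further: 0% = cytokine-treated negative control wells and 100% = positive control rescue; higher means more ATP so stronger rescue from cytokine killing; wells of about 40 µL received 100 nL stock; the first replicate is given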
rRNA inh HTS – selective bacterial rRNA inhibition in E. coli. E. coli WT GFP vs humanized-ribosome RFP mutants, fluorescence, 24 h; stronger effect = lower value; DMSO median 0, no signal -100. GFP signal change (wild-type ribosome), % (test concentration not listed). 350,000 compounds, 1.6% hits;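 active means significant combined selectivity score with lowered wild-type GFP, culture density cut under 30%, mutant RFP and density less affected; inactive means any of these conditions unmet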; further: one replicate is shown; some compounds called inactive have numbers as strong as hits
FGF22 binding – FGF22 (human) thermal shift binding; AID 651658; calls only at 9.99 µM; 340,000 compounds, 1.5% hits; recombinant FGF22 thermal shift, SYPRO orange fluorescence; percent of sucrose octasulfate shift, DMSO zero;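 active means melting point raised past a set limit in the mean and every replicate; inconclusive means no clear call; three in four hits are not shown here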
Target sequence (Q9HCT0 whole entry, looked up): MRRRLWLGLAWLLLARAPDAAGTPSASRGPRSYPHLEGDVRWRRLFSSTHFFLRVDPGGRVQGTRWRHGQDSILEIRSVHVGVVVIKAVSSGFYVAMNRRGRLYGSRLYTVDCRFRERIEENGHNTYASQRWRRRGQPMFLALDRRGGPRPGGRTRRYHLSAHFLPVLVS
T cruzi inh – blocks replication of Trypanosoma cruzi. T. cruzi beta-gal in NIH3T3, luminescence, 90 h. inhibition, % (no concentration beside the values). 300,000 compounds, 1.4% hits. AID 1885;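 active means mean inhibition across valid replicates above about 55%, limit read from the data; inconclusive means mean below that limit but half or more replicates reach it; inactive means mean below it, under half of replicates reach it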;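 further: signal also drops with host cell toxicity which is not excluded here; 0% = plate median of DMSO wells and 100% = zero luminescence signal; higher percent means less beta-gal luminescence so fewer parasites; stock transfer was 50 nL into about 50 µL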
rRNA inh HTS OD600 – recorded beside rRNA inh HTS, whose call it bears; OD600 change, %; measured here: OD600 growth;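 optical density of the mix in the first replicate; 0 = DMSO median and -100 = no signal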
rRNA inh HTS RFP – also measured in rRNA inh HTS; calls as there; RFP signal change, %; measured here: RFP humanized mutant strains;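 first replicate; 0 = DMSO median and -100 = no signal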
* marks the source's active call; other numbers are inactive results; i = inactive; ? = inconclusive; / = no result given. This is a subset; count on the stated rates, not on these rows.

The line under a structure holds: Bfl-1 A1 inh	E coli growth	AF4-AF9 inh	UCH37 inh	Beta cell apopt	rRNA inh HTS	rRNA inh HTS OD600	rRNA inh HTS RFP	FGF22 binding	T cruzi inh
> CC(C)c1cc(C(=O)NC2CCCc3c2cnn3-c2ccccc2F)no1 (centres undefined)
  -0.7	0.69	-2.8	4.7	16	-6	-4	-0.4	i	-10
> O=C(NCc1ccc2c(c1)OCO2)C(=O)NCC1OCCN1S(=O)(=O)c1ccc(Br)cc1 (centres undefined)
  0.3	0.75	2.5	3.4	11	-14	-4	-2.9	i	8
> CC1CCCCC1NC(=S)NC(=O)c1cccs1 (centres undefined)
  0.7	0.66	-0.5	4.1	7	-51	-79	-22	i	?
> CCCCn1c(N)c(N(CCOC)C(=O)c2oc3ccc(OC)cc3c2C)c(=O)[nH]c1=O
  -0.4	0.7	1.0	1.1	-12	2	8	-2.7	i	-5
> CCCN(C(=O)COC(=O)CSc1ccc([N+](=O)[O-])cc1)C1CCS(=O)(=O)C1 (centres undefined)
  -0.4	0.64	1.7	6.6	0	0	16	-2.5	i	/
> COc1ccccc1OCC(=O)NNC(=O)c1ccc(F)c(S(=O)(=O)N2CCOCC2)c1
  3.6	/	5.3	/	-6	3	3	1.3	i	/
> CC(=O)Nc1ccc(S(=O)(=O)NC(C)C(=O)OCC(=O)NC2CCCC2)cc1 (centres undefined)
  0.1	0.76	-2.4	5.3	10	/	/	/	i	-4
> O=C1CCCN1CCC1CCCCN1Cc1nc(-c2cnccn2)no1 (centres undefined)
  0.1	0.61	-4.3	2.9	0	14	8	1.4	i	-13
> COC(=O)c1ccccc1NC(=O)C1CCN(C(=O)Cc2ccccc2)CC1
  1.9	0.72	-5.4	0.8	-5	-12	-10	0.4	i	-18
> Cc1nc(CCNC(=O)C2CCC(=O)N(Cc3ccc(Cl)cc3)C2)sc1C (centres undefined)
  /	0.67	0.1	1.6	/	2	-3	0.2	i	0
> O=C(Cc1ccc(F)cc1)Nc1nnc(-c2ccc(F)cc2)o1
  1.3	0.7	0.0	5.0	0	0	6	-0.3	i	-50
> OC(C[n+]1ccccc1)c1ccccc1 (centres undefined)
  1.4	0.7	-2.2	1.3	-4	-1	6	-2.8	i	-5
> CC1CCN(CC(C)OC(=O)c2ccc3c(c2)OCCO3)CC1 (centres undefined)
  -0.4	0.74	3.6	-0.4	-3	11	10	-0.9	i	-10
> O=C(NCCN1CCOCC1)c1cccc(S(=O)(=O)N2CCCCCC2)c1
  ?	0.71	/	1.8	-3	/	/	/	/	-6
> Clc1ccc(Cn2ncc3c(N4CCCC4)ncnc32)cc1
  0.0	0.7	/	0.9	0	/	/	/	/	3
> Nc1nc(Br)c2ccccc2c1-c1ccc(F)cc1
  -0.1	0.68	/	-40	-2	/	/	/	/	-6
> O=C(CCC1CCCC1)Nc1cccc(Cc2ccncc2)c1
  0.2	0.64	0.1	3.5	-1	-31	-46	-1.1	i	-16
> CCOC(=O)c1ccc(NC(=O)Nc2c(C)n(C)n(-c3ccccc3)c2=O)cc1
  0.8	0.69	-4.5	-0.7	2	3	9	-0.6	i	-6
> COc1cccc(C2CC(c3ccccc3)n3ncnc3N2)c1 (centres undefined)
  -1.7	0.76	1.1	0.4	-3	8	3	3.5	i	2
> Cc1ccc(S(=O)(=O)NCCCn2ccnc2)cc1C(=O)NC(C)C
  0.1	0.7	-21	-0.1	-2	11	8	-1.5	i	-12
> CC(C)(C)c1ccccc1NC(=O)CN1C(=O)NC(Cc2ccccc2)C1=O (centres undefined)
  -0.1	0.68	-6.7	4.6	-2	0	0	-2.6	i	-7
> CN(CC(=O)Nc1ccccc1C(F)(F)F)C(=O)COc1cccnc1[N+](=O)[O-]
  0.2	0.7	-1.0	5.3	-1	12	4	1.9	i	5
> CC(C)(C)C(=O)CNS(=O)(=O)c1ccc(S(=O)(=O)NC2CCCC2)cc1
  0.9	0.7	2.5	1.0	-1	-3	2	3.8	i	9
> Cc1ccc(NC(=O)CCC(=O)NNC(=O)COc2ccc([N+](=O)[O-])cc2)c(C)c1
  1.7	0.75	-0.7	4.1	0	14	9	0.3	i	/
> CCOCCCNC(=O)C1CCCN1C(=O)NC1CCCCC1 (centres undefined)
  -0.2	0.71	/	2.5	1	/	/	/	/	-5
> COc1ccc(-c2cn3c(C)c(C(=O)NC(C)(C)C)sc3n2)cc1
  -0.6	0.78	1.4	2.9	8	-7	-9	-2.5	i	-1
> CCN(CC(=O)Nc1c(F)cccc1F)C(=O)C1COc2ccccc2O1 (centres undefined)
  /	0.66	-2.5	1.7	/	13	13	1.8	i	/
> O=C(Cn1cc(C(=O)c2cccs2)c2ccccc21)NCc1cccs1
  -0.7	0.65	/	0.5	-4	/	/	/	/	7
> CCOC(=O)N1CCN(C(=O)C(=O)N/N=C/c2ccc(OC)cc2OC)CC1
  0.5	/	/	/	1	4	4	0.8	i	-9
> Cc1cccc2cc(CN(CC(C)C)S(=O)(=O)c3ccccc3)c(=O)[nH]c12
  0.9	0.66	-0.6	-2.6	/	1	0	-0.1	i	19
> O=c1c([N+](=O)[O-])cccn1Cc1ccc(F)cc1Cl
  0.3	0.69	2.1	5.6	-5	-10	-25	1.6	i	28
> Cc1ccsc1C(=O)Nc1ccccc1N1CCOCC1
  -0.1	0.69	/	1.7	-1	/	/	/	/	6
> Cc1c(C)c(C)c(S(=O)(=O)NCCC(=O)N2CCN(Cc3ccc(C#N)cc3)CC2)c(C)c1C
  0.4	0.71	0.2	-1.3	-16	-5	-14	3.8	i	/
> Cc1nc2ccccc2n1CC(=O)OCC(=O)Nc1ccc2c(c1)OCCO2
  -0.2	0.74	/	1.5	-3	/	/	/	/	5
> O=S(=O)(NCCCN1CCOCC1)c1ccc(Cl)s1
  0.2	0.71	-2.1	4.7	0	6	9	-6.7	i	-9
> COc1nc(N)c(S(=O)(=O)c2ccccc2C)cc1C#N
  1.8	0.72	/	-4.0	-1	/	/	/	/	-10
> COc1cccc(C(=O)Nc2cccc(-c3ccccc3)c2)c1
  -0.6	0.68	-5.5	2.7	-5	-27	-33	-7.8	i	-3
> CC1CCCCC12NC(=O)N(CC(=O)NCCc1ccc(S(N)(=O)=O)cc1)C2=O (centres undefined)
  -0.2	0.68	-1.7	1.4	-1	7	3	-11	i	/
> Cc1ccc(NC(=O)COC(=O)CNC(=O)C2CCCCC2)cc1S(=O)(=O)N(C)C
  0.3	0.7	-0.2	0.7	-5	2	2	1.8	i	/
> CNC(=S)SCCOc1ccccc1
  -0.6	0.67	0.6	-0.8	-30	6	0	1.1	i	4
> Cc1cc(C)c(S(=O)(=O)N2CCN(C(=O)c3ccc(-n4cncn4)c([N+](=O)[O-])c3)CC2)c(C)c1
  0.0	0.65	4.5	-0.7	-9	0	7	-0.3	i	50
> Cc1ccccc1NC(=O)c1cn2c(nc3ccccc32)c(C#N)c1C
  0.3	0.76	-0.1	-83	3	13	5	-1.7	i	-3
> Cc1cccc(OCC(O)Cn2c(N3CCCCC3)nc3c2c(=O)n(C)c(=O)n3C)c1 (centres undefined)
  0.3	0.68	2.0	2.6	-1	1	5	0.2	i	1
> CCCCC(CC)CNC(=O)c1cccs1 (centres undefined)
  0.2	0.67	/	1.4	5	-8	-7	-3.3	/	6
> CC(C)C(=O)N(Cc1ccc2c(c1)OCO2)Cc1ccccn1
  0.9	0.67	/	1.2	-4	/	/	/	/	-11
> O=C(NCCc1ccccc1)C1(c2ccccc2)CC1(Cl)Cl (centres undefined)
  1.4	0.73	/	1.6	-2	/	/	/	/	4
> Cn1c(CNC(=O)c2ccccc2F)nnc1SCC(=O)Nc1nnc(C2CC2)s1
  0.1	0.61	7.9	2.5	-3	11	13	0.8	i	-6
> O=C1CC(N2CCN(c3ccccc3)CC2)C(=O)N1CCc1ccccc1 (centres undefined)
  -1.3	0.62	/	2.2	-3	/	/	/	/	2
> COc1ccc(CNn2c(-c3ccccc3F)nc3ccccc3c2=O)cc1OC
  0.9	0.63	0.8	-0.7	/	-7	3	-2.2	i	4
> CCN=C1S/C(=C\c2ccc(O)c(OCC)c2)C(=O)N1CC
  0.0	0.66	5.6	1.3	-1	-18	-14	18	i	-25
> CC(=O)c1ccc(OC(=O)COc2ccccc2Cl)cc1
  -0.2	0.67	-11	1.1	-5	0	5	-4.6	i	-3
> CCOC(=O)c1c(C)[nH]c(C(=O)Cn2nnc(-c3ccccc3)n2)c1C
  1.7	0.74	/	0.2	3	/	/	/	/	4
> Cc1ccc(NC(=O)CN2C(=O)C(=O)N(C3CCCC3)C2=O)cc1Cl
  0.3	0.64	3.6	3.8	0	/	/	/	i	/
> O=C(NCc1ccco1)C1CCCN1S(=O)(=O)c1ccc2ccccc2c1 (centres undefined)
  -0.1	0.69	1.8	-1.3	0	-5	-7	-0.2	i	3
> COc1ccccc1NS(=O)(=O)c1c(C(=O)N2CCCC2)c(C)n(C)c1C
  0.2	0.54	-1.5	-1.3	-2	13	9	0.3	i	-1
> O=C(NCCCN1CCOCC1)C(=O)N/N=C/c1ccccc1O
  0.0	/	-4.2	/	-8	10	1	5.3	i	-3
> O=C(COC(=O)c1cc(Cl)nc(Cl)c1)Nc1ccc(Cl)c(S(=O)(=O)N2CCOCC2)c1
  1.0	0.71	-1.3	2.7	1	4	5	1.5	i	/
> COC(=O)c1cc(=O)n(Cc2ccc3c(c2)OCO3)c(=Nc2ccc(F)c(Cl)c2)s1
  0.2	0.78	6.4	5.7	23	5	8	-2.9	i	44
> Cn1nnnc1SCC(=O)NCc1ccccc1
  0.3	0.75	/	1.1	0	/	/	/	/	1
> CC1CCN(C(=O)/C(=C\c2ccccc2)NC(=O)c2ccccc2)CC1
  0.1	0.66	-14	1.2	-8	2	-3	-0.1	i	-5

(listing goes on)
The line under a structure holds: Bfl-1 A1 inh	E coli growth	AF4-AF9 inh	UCH37 inh	Beta cell apopt	rRNA inh HTS	rRNA inh HTS OD600	rRNA inh HTS RFP	FGF22 binding	T cruzi inh
> COc1ccc(C(=S)N2CCOCC2)cc1OC(=O)c1ccccc1
  0.0	0.69	6.5	4.7	-2	-5	-9	2.8	i	-7
> O=C(CCS(=O)(=O)c1ccccc1Cl)NC1CCCCCC1
  0.8	0.71	0.4	-0.5	1	2	1	1.1	i	/
> O=C(NCc1ccccc1)c1cccnc1
  0.0	0.66	0.3	-1.0	0	8	6	6.0	i	1
> O=S(=O)(c1ccc(F)cc1)N1CCN(Cc2ccccn2)CC1
  0.3	0.7	-0.2	3.6	-7	2	-19	-1.6	i	-11
> Cn1c(NC(=O)c2cccs2)c(-c2cccs2)c(=O)c2ccccc21
  0.7	0.71	/	7.8	-7	/	/	/	/	-4
> COc1cccc(NS(=O)(=O)c2cn(C)c(=O)n(C)c2=O)c1
  -0.5	0.71	13	2.4	-8	7	12	1.1	i	-5
